Screening data deposited in PubChem by ICCB-Longwood Screening Facility, Harvard Medical School.
CapD inh – blocks the Bacillus anthracis CapD enzyme; z-score (test concentration not listed); hit rate 0.23% among 140,000; purified CapD enzyme, fluorescence intensity read-out; hits give low values; some hits fall short of the stated cut;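 active means z-score under -4 in either of two replicates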;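 further: stock transfer was 100 nL into about 40 µL; score is relative to mean and spread of the plate; one replicate is shown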
AID504770 – growth inhibitors of E. coli YBA685 in a screen for V. cholerae RctB (chromosome II replication) inhibitors; hit rate 0.27% among 130,000; z-score (test concentration not listed); E. coli YBA685 rctB-dependent plasmid, OD600 growth, 3 h; hits give low values;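 active means z-score under -2 on both plates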;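 further: wells of about 30 µL received 100 nL stock; score is relative to mean and SD of the test wells; the first replicate is given; strong numbers were not always called active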
Starred values were filed as active, the others as inactive; i = inactive; · = no result given. Only part of the results is shown (hit frequency here may not be typical).

SMILES	CapD inh	AID504770
COc1ccc(CCNc2nnc(Cc3ccc(Cl)cc3)c(=O)[nH]2)cc1OC	·	-0.6
CC12CC[C@H]3[C@@H](CCC4(O)C[C@H](O)CCC34/C=N/NC(=O)c3ccc(Cl)cc3Cl)C1(O)CCC2C1=CC(=O)OC1 (stereo not given in full)	-0.38	·
CCn1c(C(=O)O)c(CNCc2ccc3c(c2)OCO3)c2ccccc21	1	-0.65
CC(Cc1ccco1)NC(=O)Cn1c(=O)oc2ccccc21 (stereo not given)	-1.3	-0.5
Cc1ccc(Cn2cc(C(=O)Nc3cccnc3)ccc2=O)cc1	·	0.1
COc1ccc(C(=O)N2c3cc(C)ccc3C(Nc3ccc(C)cc3)CC2C)cc1 (stereo not given)	0.42	·
Cc1cc2n(n1)CCCN2CC(=O)Nc1cccc(Cl)c1C	-1.2	-0.05
O=C(Oc1cccc2cccnc12)C1CCCCC1	0.045	-0.2
CC(=O)N1CCC(N(C(=O)NC2CCCC2)C(C)C)CC1	-0.34	0.75
O=C(CC1(O)C(=O)Nc2ccc(Br)cc21)c1ccc2ccccc2c1 (stereo not given)	0.09	·
CC(O)C(=O)Nc1cc(Cl)cc(Cl)c1 (stereo not given)	-0.09	0.55
CCOc1cccc(NC(=O)c2nc(C)oc2C(F)(F)F)c1	0.32	1.3
CC1(C(=O)O)NC(c2ccc(O)cc2O)C2C(=O)N(Cc3ccccc3)C(=O)C21 (stereo not given)	0.15	·
CS(=O)(=O)c1cnc(-c2ccc(C(F)(F)F)nc2)nc1-c1ccccc1C(F)(F)F	-0.52	·
C=CCn1c(SC)nc2c(c1=O)C1(CCCCC1)Cc1ccccc1-2	-0.49	-0.6
Cc1ccc(OCCNC(=O)c2ccc(NC(=O)CC#N)cc2)cc1	·	3
CCNc1cccc2c1C(=O)N(C)C2=O	·	-0.2
Cc1ccc(-c2ccc(OCc3c(C)noc3C)c(C)c2)cc1	·	-0.55
Cc1cccc(N2C(=O)/C(=C/c3ccc(-c4ccc([N+](=O)[O-])cc4)o3)C=C2c2ccccc2)c1	-0.67	·
c1cncc(-c2nc(NCc3ccco3)c3ccccc3n2)c1	·	0.05
CCOC(=O)c1c(CSc2nnc(CN3CCCCCC3=O)n2CC)nc2ccccc2c1C	·	-0.7
NCCCn1cnc2ccccc21	0.32	1.4
O=C1CN(C(=O)/C=C/c2ccc(Br)cc2)CCN1	·	0.55
CC(C)(C)OC(=O)C(C)(C)Sc1ccc(C(F)(F)F)cn1	-0.085	·
CC1(C)CC(=O)C2=C(C1)N=C1c3ccccc3C(=O)C1C2c1cc([N+](=O)[O-])ccc1O (stereo not given)	-0.055	·
CN(C)c1nc(SCCOC(=O)COc2ccc(Cl)cc2Cl)nc(N(C)C)n1	30	0.35
COc1ccc(Nc2nc(-c3ccccc3O)nc3ccccc23)cc1	-0.23	·
O=C(NCCc1ccccc1)c1nnc(Cc2ccc(F)cc2)o1	-0.055	-1.1
O=C(Oc1ccccc1)c1csc(-c2cccnc2)n1	-0.69	0.45
COC(=O)C1=C(NC(=O)c2ccc(S(=O)(=O)N3CCOCC3)cc2)CCS1	0.32	0.1
Cc1noc(C)c1-c1nc(COc2ccc(/C=C(/C#N)S(C)(=O)=O)cc2)no1	0.91	-0.65
CCc1ccccc1NC(=S)Nc1ccc(Oc2ccc(Cl)cc2)cc1	0.12	-0.9
COc1ccc(C2OC(=O)CC2C(=O)NCCc2ccccc2)cc1OC (stereo not given)	-0.33	-0.75
c1ccc2[nH]c(C3CCCCC3)nc2c1	0.25	0.95
CC(C)(CC(=O)Nc1cccnc1)Sc1ccc(Cl)cc1	0.89	0
Cc1cc(Br)ccc1NC(=O)CN(C)C(=O)C1=COCCO1	·	-1.2
CC(=O)N1N=C(COc2ccc(Cl)cc2Cl)OC1c1ccco1 (stereo not given)	-0.24	-0.4
CCn1cc(C(=O)NC2CCCCCC2)c(=O)c2cc(F)c(N3CCN(C(C)=O)CC3)cc21	·	0.25
O=C(O)CC1=C(c2cccs2)CCC1=O	·	-1.5
COc1ccc(-c2nc(CNS(=O)(=O)N(C)C)cs2)cc1	-0.71	1.4
CN(C)C(=S)c1ccc2ccccc2n1	-0.53	-0.5
CCOC(=O)c1c(C)oc2c1c(CN1CCN(C)CC1)c(O)c1ccccc12	0.92	0.45
CCSCC1COC(c2cccn2Cc2ccc(F)cc2)=N1 (stereo not given)	-0.065	-0.2
Cc1ccc(C2=NN(C(=O)CCC(=O)O)C(c3cc4cccc(C)c4nc3Cl)C2)cc1 (stereo not given)	0.21	·
Cc1ccc(C2CC(=O)NC(SCC(=O)Nc3ccc(Br)cc3)=C2C#N)s1 (stereo not given)	0.62	·
Cc1cccc(C)c1NC(=O)C1=C(O)c2ccccc2N(C)S1(=O)=O	-0.17	·
Cc1ccc2nc(SC(C)C(=O)Nc3ccc(C#N)cc3)[nH]c2c1 (stereo not given)	·	-0.5
Cc1onc(-c2c(Cl)cccc2Cl)c1C(=O)N=S(C)(C)=O	0.38	-0.05
CC(C)N(C(=O)Nc1ccccc1F)c1ccccc1	0.92	0.25
CN1CCCN(C(=O)c2cnccn2)c2nc3ccccc3nc21	·	0.15
COC(=O)CN1C(=O)COc2cc(S(=O)(=O)NCc3ccc(Cl)cc3)ccc21	1.1	0.45
CSc1sc(C(=O)NNC(=O)CC(c2ccccc2)(c2ccccc2)c2ccccc2)cc1-c1nc(C)cs1	0.59	·
CSc1ccc(S(=O)(=O)N(C)C)cc1	0.12	-0.45
CCOc1ccc(-n2c(SCC(=O)Nc3cc(OC)ccc3OC)nc3n[nH]c(C)c3c2=N)cc1	-0.06	·
CCn1c(-c2ccccc2)c(C2=NNC(=NC(C)COC)SC2)c2ccccc21 (stereo not given)	·	0.45
CC1=CC(=C(C#N)C#N)C=C(C)N1Cc1ccncc1	·	1.6
O=C(O)c1cnn2c1ncc1c3ccccc3ccc12	·	-0.75
Cc1nn(Cc2ccc(C(=O)n3cc(Cl)cn3)o2)c(C)c1Cl	-0.18	0.4
COC(=O)c1ccc2c(=O)n3c(nc2c1)SC1CS(=O)(=O)CC13 (stereo not given)	4.2	2.2
CC(C)NC(=S)N1CCN(Cc2ccc3c(c2)OCO3)CC1	·	1.5
The listing continues.
SMILES	CapD inh	AID504770
O=C(CSc1ccccc1)Nc1nnc(C2CC2)s1	·	-2.4
Cc1cc(C)c2c(N)c(-c3nnc(SCc4ccc(Cl)cc4)n3C)sc2n1	7.4	-0.1
C/C(=N\N=C(N)N)c1ccccc1	-0.45	-0.3
CC(C(=O)Nc1ccccn1)N1C(=O)C2C3C=CC(C3)C2C1=O (stereo not given)	0.08	-0.3
Cc1[nH]c(=O)[nH]c(=O)c1S(=O)(=O)NCc1cccnc1	-1.4	-0.05
CC(=O)NC1C(=O)N=C(SCC(=O)NC(C)c2ccccc2)NC1=O (stereo not given)	·	-0.3
COC(=O)Cc1csc(=Nc2ccccc2)n1-c1ccccc1	i	0.45
O=C(c1sc2ccccc2c1Cl)N1CCN(c2ccc(C(F)(F)F)cc2[N+](=O)[O-])CC1	-0.09	·
COc1ccc(Br)cc1C1SCCN1C(=O)c1cc2ccccc2oc1=O (stereo not given)	0.21	·
Cn1cccc1C(C(=O)NC1CCCCC1)N(C(=O)Cn1nnc2ccccc21)c1cnc2ccccc2c1 (stereo not given)	·	2
CCn1c(SCc2nc3ccccc3c(=O)[nH]2)nnc1-c1ccccc1F	-0.23	-0.05
CSc1ccc(C2NC(=O)c3ccccc3N2)cc1 (stereo not given)	·	0.2
CN(C)S(=O)(=O)Oc1ccccc1C(=O)Nc1cccc(C(F)(F)F)c1	0.38	·
Cc1csc(N(C(=O)Cc2csc(-c3ccccc3)n2)c2ccccc2)n1	·	-0.15
COc1ccc(N2CCN(C(=O)OCC3CCCN(Cc4ccccc4F)C3)CC2C)cc1 (stereo not given)	-0.62	·

Among those listed so far, these have a Cl atom.
SMILES	CapD inh	AID504770
COc1ccc(CCNc2nnc(Cc3ccc(Cl)cc3)c(=O)[nH]2)cc1OC	·	-0.6
CC12CC[C@H]3[C@@H](CCC4(O)C[C@H](O)CCC34/C=N/NC(=O)c3ccc(Cl)cc3Cl)C1(O)CCC2C1=CC(=O)OC1 (stereo not given in full)	-0.38	·
Cc1cc2n(n1)CCCN2CC(=O)Nc1cccc(Cl)c1C	-1.2	-0.05
CC(O)C(=O)Nc1cc(Cl)cc(Cl)c1 (stereo not given)	-0.09	0.55
CN(C)c1nc(SCCOC(=O)COc2ccc(Cl)cc2Cl)nc(N(C)C)n1	30	0.35
CCc1ccccc1NC(=S)Nc1ccc(Oc2ccc(Cl)cc2)cc1	0.12	-0.9
CC(C)(CC(=O)Nc1cccnc1)Sc1ccc(Cl)cc1	0.89	0
CC(=O)N1N=C(COc2ccc(Cl)cc2Cl)OC1c1ccco1 (stereo not given)	-0.24	-0.4
Cc1ccc(C2=NN(C(=O)CCC(=O)O)C(c3cc4cccc(C)c4nc3Cl)C2)cc1 (stereo not given)	0.21	·
Cc1onc(-c2c(Cl)cccc2Cl)c1C(=O)N=S(C)(C)=O	0.38	-0.05
COC(=O)CN1C(=O)COc2cc(S(=O)(=O)NCc3ccc(Cl)cc3)ccc21	1.1	0.45
Cc1nn(Cc2ccc(C(=O)n3cc(Cl)cn3)o2)c(C)c1Cl	-0.18	0.4
Cc1cc(C)c2c(N)c(-c3nnc(SCc4ccc(Cl)cc4)n3C)sc2n1	7.4	-0.1
O=C(c1sc2ccccc2c1Cl)N1CCN(c2ccc(C(F)(F)F)cc2[N+](=O)[O-])CC1	-0.09	·

Additional structures.
SMILES	CapD inh	AID504770
CC(C)CC(C(=O)O)n1c(O)c(C2=c3ccccc3=NC2=O)sc1=S (stereo not given)	·	-0.15
COc1ccc(NC(=O)Cc2c[nH]c3ccccc23)cc1	-0.85	1.9
O=C(CSc1ccccc1F)Nc1nc(-c2cccs2)cs1	·	-0.55
CCC(C)N(CN1C(=S)SC2=NC(=O)CCCN21)C(C)CC (stereo not given)	·	-0.4
CNC(=O)c1ccc2c(c1)OCCO2	·	-0.4
FC(F)(F)c1ccncc1-c1nc(-c2ccc(Cl)cc2)cs1	5	-0.85
Cc1ccc(CN2CCc3ccccc3C2)o1	0.38	-1.1
CCCCn1c(-c2ccccc2)nn(S(=O)(=O)c2ccc(Br)cc2)c1=O	0.17	0.2
CSc1ccccc1NCN1C(=O)c2ccccc2C1=O	0.33	·
COc1cc(-c2nnc(COC(=O)C3=NN(c4cc(C)ccc4C)C(=O)CC3)o2)cc(OC)c1OC	·	-0.25
CCOC(=O)n1ccn(C)c1=S	-0.53	-0.1
NC(=O)C1CCN(C(=O)c2ccc3c(=O)n(Cc4ccco4)c(SCc4ccc(F)cc4)nc3c2)CC1	-0.37	·
CCC(CO)NCC(=O)Nc1ccc(C)cc1F (stereo not given)	·	-2.3
CCOCCn1cnc2sc(C(=O)N3CC(C)CC(C)C3)c(C)c2c1=O (stereo not given)	6.1	·
NS(=O)(=O)c1ccc(CCNC(=O)c2ccc(Cl)cc2)cc1	0.2	-0.1
Nc1ccc(C(=O)OCc2nc3ccccc3[nH]2)cc1	0.005	-0.7
CC(C)=CC(NCc1ccccc1O)C(=O)O (stereo not given)	0.065	·
CC(C)CN(C(=O)CSc1nc(N)cc(N)n1)C1CCS(=O)(=O)C1 (stereo not given)	·	-0.35
CCOC(=O)c1c(/N=C/c2c(O)n(C)c3ccccc23)sc(C)c1C	-1	0.8
Cc1c(Br)c(=O)[nH]c(=O)n1COCc1ccccc1	0.47	-0.6
CC(C)(C)OC(=O)[C@@H]1CCCN1C(=O)c1ccc2cc[nH]c2c1	0.35	·
Nc1ccccc1Oc1ccc2ccccc2c1	0.09	0.9
Cc1c(Cl)ccc2c1NC(=O)C2(O)N1CCCC(C)C1 (stereo not given)	-0.36	-0.15
COc1ccc(C2C(C#N)=C(N)OC3=C2C(=O)CC(C)(C)C3)cc1Cn1nc(C)c([N+](=O)[O-])c1C (stereo not given)	0.005	·
O=C(OCCN1C(=O)c2ccccc2C1=O)c1cc2ccccc2oc1=O	·	-0.25
CC(=O)NC1CCSC1=O (stereo not given)	1.7	·
COc1cc(C(=O)CSc2ccc(C)cc2)cc(OC)c1OC	·	-0.05
FC(F)(F)c1cccc(N2CCN(C3=Cc4ccccc4CC3)CC2)c1	1.3	-0.7
O=C(/C=C/c1ccc(Br)o1)NC1=NCCS1	0.46	0.5
CC(NC(=O)CN(C)C1CCS(=O)(=O)C1)c1ccccc1 (stereo not given)	·	-0.65
O=C(N/N=C/c1ccncc1)C1CCCCC1	0.055	-0.2
C=CCOc1ccc2ccccc2c1/C=N/O	5.1	-1.2
CCCN(C1CCN(Cc2c(OC)cccc2OC)CC1)S(=O)(=O)c1cccc(C(F)(F)F)c1	-0.39	·
CCCOC(=O)Cc1n[nH]c(=O)[nH]c1=O	-0.095	-0.85
CN1c2ccccc2C(=O)/C(=C\Nc2cccnc2)S1(=O)=O	5.3	-0.5
Cn1cc(/C=N/NC(=O)c2cccc(Cl)c2)c2ccccc21	-0.79	·
N#Cc1ccc(Oc2ccc(C(F)(F)F)cc2N)cc1	-0.27	·
CCc1ccc(S(=O)(=O)N2CCn3cccc3C2c2ccc(OC)c(OC)c2)s1 (stereo not given)	·	0.4
Cc1nc2ccc(Cc3ccc4nc(C)[nH]c4c3)cc2[nH]1	0.81	-0.85
CCc1ccc(C(=O)NC(C)C2CCCO2)s1 (stereo not given)	-1	1.2
CCOC(CNC(=O)c1sc2nc(C)nc(N3CCOCC3)c2c1C)OCC	2.2	·
c1ccc(-c2nc3c4ccccc4ccn3c2CN2CCOCC2)cc1	-0.51	-0.25
Cc1cc(C)c(C=C2C(=O)CCCC2=O)[nH]1	-7.6*	0.2
CC(C)(CC(=O)O)CC(=O)N1CCN(c2ncccc2C#N)CC1	82	1.5
COC(=O)C1=C(C)NC(C)=C(C(=O)OC)C1C	11	1.4
O=C(NNc1ccc(OC(F)(F)F)cc1)c1ccc(Cl)cc1Cl	0.69	·
O=C1CCCCC1Sc1nnc(-c2ccc3c(c2)OCO3)o1 (stereo not given)	·	0
